Source: PubChem BioAssay (National Center for Advancing Translational Sciences (NCATS))
VDR inhibitor – blocks the human vitamin D receptor; P11473; VDR-SRC2-3 peptide fluorescence polarization, 2 h; Potency, µM, without a hit: max response, negative = inhibition, actives largely listed as inhibitors; hit rate 0.93% among 400,000; AID 504847; active = well fitted inhibition curve with a large enough effect; inconclusive = small, poorly fitted or top-dose-only effect, or another doubt; inactive = no such curve, though single readings can be large or run the other way; also: series mostly up to about 120 µM
Target sequence (P11473 whole entry, looked up): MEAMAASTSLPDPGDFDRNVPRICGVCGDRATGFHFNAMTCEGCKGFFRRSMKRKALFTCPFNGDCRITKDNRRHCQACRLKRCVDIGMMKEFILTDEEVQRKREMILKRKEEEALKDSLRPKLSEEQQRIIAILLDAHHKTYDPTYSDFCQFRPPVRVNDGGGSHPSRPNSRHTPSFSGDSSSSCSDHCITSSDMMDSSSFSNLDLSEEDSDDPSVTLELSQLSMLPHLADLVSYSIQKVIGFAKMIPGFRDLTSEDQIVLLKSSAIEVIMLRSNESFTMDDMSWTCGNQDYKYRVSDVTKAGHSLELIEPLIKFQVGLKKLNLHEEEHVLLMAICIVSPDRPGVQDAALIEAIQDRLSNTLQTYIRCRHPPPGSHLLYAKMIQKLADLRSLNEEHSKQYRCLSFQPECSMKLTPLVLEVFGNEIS
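Inhibition of the VDR/SRC2-3 peptide interaction is quantified by fluorescence polarization. Compounds (23 nl, pintool) incubate with the reagents for 2 hours at ambient room temperature.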
* hit, by the source's call; ? = inconclusive; & = joins results of further samples. % is scaled to controls: 0 for no effect and ±100 for the full control effect; potency is read from the fitted curve at half-maximal effect. Not all compounds are listed; rates above refer to the full screens.

SMILES	VDR inhibitor
COC(=O)C1=C(C)N(CCCC(=O)O)C(=O)NC1c1ccc(Br)cc1 (stereo not drawn)	-9%
CCOc1ccc(NC(=O)Cn2cc(C(=O)c3ccc(C)cc3)c(=O)c3cc4c(cc32)OCO4)cc1	-9%
COc1ccc(CNS(=O)(=O)CCNC(=O)c2ccccc2)cc1	9%
Cc1ccc(NS(=O)(=O)c2ccc3[nH]c(=O)sc3c2)cc1	12%
Cc1cccc(CC2SC(N)=NC2=O)c1 (stereo not drawn)	-6%
C=CCn1c(SCC(=O)Nc2nnc(CC)s2)nnc1-c1ccncc1	-5%
Cc1nn(C)cc1CN(C)C(=O)c1cc(COc2ccc(F)cc2F)on1	12%
COc1cccc(NC(=O)CN(C)C(=O)CN2C(=O)NC3(CCCC3)C2=O)c1	-13%
COC(=O)Cn1c(=NC(=O)c2ccc3c(c2)OCCO3)sc2ccccc21	13%
COc1ccc([C@H]2CC(=O)C=C(c3ccc(C)cc3)C2)cc1OC	0%
CC1CN(C(=O)c2ccc(COc3ccccc3Cl)o2)CC(C)O1 (stereo not drawn)	9%
CCCCSCCCNC(=O)c1cc(-c2cccnc2)nc2ccc(S(=O)(=O)N3CCC(C)CC3)cc12	24%
COC1=CC(=O)CC(C)C12Oc1cc(OC)cc(OC)c1C2=O (stereo not drawn)	0%
O=C(CN1CCOCC1)Nc1ccc(OC(F)(F)F)cc1	-12%
Cc1c(C)c2ccc(OCC(=O)N[C@@H](Cc3ccccc3)C(=O)O)cc2oc1=O	7%
O=c1c(-c2ccc(O)cc2)coc2c(C3O[C@H](CO)[C@@H](O)[C@H](O)[C@H]3O)c(O)ccc12 (stereo partly drawn)	-2%
CCc1ccc(NC(=O)CSC2=C(C#N)C(c3ccco3)C3=C(CCCC3=O)N2)cc1 (stereo not drawn)	1%
NS(=O)(=O)c1ccc(N/C=C/C(=O)c2ccc(Br)cc2)cc1	14%
O=C(Cc1ccc(NC(=O)N2CCCCc3ccccc32)cc1)NCc1cccc(Br)c1	-10%
N#CC1=C2SCC(O)(c3ccccc3)N2C(=O)CC1c1ccccc1F (stereo not drawn)	9%
Fc1ccc(CNCc2ccc3c(c2)OCO3)cc1	4%
COc1ccc(CN(C)CC(O)COc2ccc(C(=O)c3ccccc3)cc2)c(OC)c1OC (stereo not drawn)	16%
COc1ccc(/C=N/N=C2/CC(C)(C)Cc3n[nH]c(=O)cc32)cc1	9%
CCCN(CCC)c1cc(Cl)nc(N)n1	-17%
Cc1ccc(F)cc1S(=O)(=O)Nc1cccc(C(=O)N2CCCC(C(N)=O)C2)c1 (stereo not drawn)	6%
Cc1ccc2c(c1)[C@H]1[C@H](CO2)[C@H](c2ccccc2)[C@]2(C)C(=O)N(C)CC(=O)N12	-8%
COc1ccc(-c2c(C#Cc3ccsc3)c3cc(-c4ccc5cc[nH]c5c4)ccc3n2C)cc1	-15%
CCN(Cc1ccncc1)C(=S)Nc1c(C)cccc1C	-6%
CCOc1ccc2nc(SCC(=O)NC(=O)C(C)C)sc2c1	-22%
CC(=O)c1sc(NC(=O)c2cc(-c3ccccc3)nn2-c2ccccc2)nc1C	-11%
CCOc1ccccc1C(=O)N(Cc1cccs1)C1CCS(=O)(=O)C1 (stereo not drawn)	5%
COc1ccc(N2CCN(Cc3cccn3-c3nnc(N4CCN(C5CCCCC5)CC4)s3)CC2)cc1	-9%
COc1ccc(S(=O)(=O)Nc2nnc(CC(C)(C)C)s2)cc1	-7%
O=C1CN(C(=O)COc2ccc(F)cc2Cl)c2ccccc2N1	10%
CCCCCn1c(=O)[nH]c2cc(C(=O)NCc3ccc(OC)cc3)ccc2c1=O	-18%
Cn1nc(-c2ccccn2)nc2c(=O)n(C)c(=O)nc1-2	10%
Cc1cc(NC(=O)CNCC(c2ccccc2)N(C)C)c([N+](=O)[O-])cc1C (stereo not drawn)	-11%
C=CCn1c(SCC(=O)N(C)C)nc2sc3c(c2c1=O)CCC3	1%
CCC(C)(C)n1nnnc1C(c1cc2ccc(OC)cc2[nH]c1=O)N1CCc2ccccc21 (stereo not drawn)	1%
O=S(=O)(NCCSc1nnnn1-c1ccccc1)c1ccc(F)cc1	-3%
COc1ccccc1OCc1cc(C(=O)N2CCCC(OCc3cccnc3)C2)no1 (stereo not drawn)	1%
CCN(CC)C(=N)/C(C#N)=N/Nc1ccccc1	-3%
Cc1ccc(NC(=O)Nc2cccc(Cl)c2)c(C(=O)O)c1	?
Oc1cc(Nc2ccncc2)cc2cccnc12	-21%
O=S(=O)(NCCc1ccc(Cl)cc1)c1ccc(N2CCCCS2(=O)=O)cc1	13%

Among those listed so far, these contain a cyano group.
SMILES	VDR inhibitor
CCc1ccc(NC(=O)CSC2=C(C#N)C(c3ccco3)C3=C(CCCC3=O)N2)cc1 (stereo not drawn)	1%
N#CC1=C2SCC(O)(c3ccccc3)N2C(=O)CC1c1ccccc1F (stereo not drawn)	9%
CCN(CC)C(=N)/C(C#N)=N/Nc1ccccc1	-3%

Remaining list, next part.
SMILES	VDR inhibitor
O=C(CN1C(=O)CSc2ccccc21)NC1CCCC1	-9%
Cc1oc(=O)c(NC(=O)c2ccccc2)cc1C(N)=O	16%
COc1ccc(-n2c(=O)c3c4c(sc3n(Cc3ccccc3)c2=O)CN(C(C)=O)CC4)cc1OC	-4%
COc1ccccc1N1CCN(C(=O)C2CCN(S(=O)(=O)c3ccc(F)cc3)CC2)CC1	-1%
COc1ccc(NC2CS(=O)(=O)CC2NCc2ccccc2)cc1 (stereo not drawn)	7%
CC(C)(C)n1nc2c(c1NC(=O)c1ccccc1F)CS(=O)C2 (stereo not drawn)	29%
COc1cc2[nH]c(C(=O)N(C)Cc3ccccc3)cc2c(OC)c1OC	-18%
Nc1ccc(Nc2nc(-c3cc4ccccc4oc3=O)cs2)cc1	12%
CCCSC(=S)c1c(C)[nH]n(-c2ccccc2)c1=O	-13%
CC(NC(=O)CSc1nc2c(cc1C#N)CN(C)CC2)c1ccccc1 (stereo not drawn)	-15%
Nc1ccc(S(=O)(=O)Nc2nccc(/C=C/c3ccc([N+](=O)[O-])cc3)n2)cc1	11%
COc1ccc(CNC(=O)CCCn2ccc3cc(S(=O)(=O)N4CCCC4)ccc32)cc1	-6%&-3%
O=C(CN1C(=O)CCOc2ccccc21)Nc1ccc(Cl)c(S(=O)(=O)N2CCOCC2)c1	-8%
CC(=O)Nc1cc(C)c2nc(NC(C)=O)sc2c1	2%
Cc1ccc(S(=O)(=O)N2CCC(=O)N(C(COCc3ccc(C(F)(F)F)cc3)C(C)C)CC2)cc1 (stereo not drawn)	8%

Arranged by the number under VDR inhibitor (largest number first): some entries from above.
| mol | VDR inhibitor |
| --- | --- |
| CC(C)(C)n1nc2c(c1NC(=O)c1ccccc1F)CS(=O)C2 (stereo not drawn) | 29% |
| Cc1oc(=O)c(NC(=O)c2ccccc2)cc1C(N)=O | 16% |
| Nc1ccc(Nc2nc(-c3cc4ccccc4oc3=O)cs2)cc1 | 12% |
| Cc1ccc(S(=O)(=O)N2CCC(=O)N(C(COCc3ccc(C(F)(F)F)cc3)C(C)C)CC2)cc1 (stereo not drawn) | 8% |
| O=C(CN1C(=O)CSc2ccccc21)NC1CCCC1 | -9% |
| CC(NC(=O)CSc1nc2c(cc1C#N)CN(C)CC2)c1ccccc1 (stereo not drawn) | -15% |
| COc1cc2[nH]c(C(=O)N(C)Cc3ccccc3)cc2c(OC)c1OC | -18% |

Additional results.
SMILES	VDR inhibitor
CCN1CCN(S(=O)(=O)c2c(C)cc(C)cc2C)CC1	-4%
CC(=O)N/C(=N\c1nc(C)cc(C)n1)Nc1ccccc1Cl	5%
N/C(=N\OC(=O)Cc1ccccc1)c1ccncc1	-9%
NC(=O)c1nsc(C(=O)N(Cc2cccnc2)C(C(=O)NCc2ccccc2)c2ccc(O)cc2)c1N (stereo not drawn)	3%
COc1ccc(-n2c3c(cc(C#N)c2=O)C(=O)CCC3)cc1	2%
CCCCc1nnc(NC(=O)c2ccc(-n3cncn3)c([N+](=O)[O-])c2)s1	-14%
Nc1ccc2nn(-c3cccc4ccccc34)nc2c1	-15%
CCCCn1c(N)c(N(C)C(=O)c2ccc(OCC3CCCO3)cc2)c(=O)[nH]c1=O (stereo not drawn)	-20%
CC1(C)CC(=O)C(/C=N/n2c(C(F)(F)F)nc3ccccc3c2=O)=C(O)C1	3%
CCn1c(SCC(=O)N(C)C2CCS(=O)(=O)C2)nnc1-c1ccccc1 (stereo not drawn)	0%
COc1ccc(COC(=O)N/N=C(\C)CC(=O)Nc2ccc(Cl)cc2)cc1	-5%
CC1=C(C(=O)Nc2cccnc2)C(c2ccccc2)n2nc(SCc3ccccc3F)nc2N1 (stereo not drawn)	-17%
CCNc1nc(NCC)nc(N/N=C/c2ccc(O)c(OC)c2)n1	-14%
CCc1nnc(SCc2nc(-c3ccccc3)oc2C)c2cc3sccc3n12	9%
CCCOCC(O)CC(Cc1ccccc1)C(=O)NN (stereo not drawn)	-9%
CCOC(=O)CSc1nc(C)c(C(C)=O)cc1C#N	-7%
Cc1ccc(Cc2cnc(N3C(=N)SC(c4ccccc4)C3=O)s2)cc1 (stereo not drawn)	-26%
Cc1cccc(Cn2c(N(C)Cc3ccccc3)nc3c2c(=O)[nH]c(=O)n3C)c1	-13%
Cc1cc(NC(=S)N(Cc2cccc(Br)c2)CC2CCC(C(=O)O)CC2)ccc1Cl (stereo not drawn)	-12%
C[C@@H](C(=O)NC1CCN(Cc2ccccc2)CC1)N1C(=O)N2CCc3c([nH]c4ccccc34)[C@@]2(C)C1=O	-18%
CN1C(=O)c2[nH]nc(-c3ccc(F)cc3)c2C1c1ccccn1 (stereo not drawn)	11%
Cc1ccccc1N(CC(=O)O)S(C)(=O)=O	-10%
Cc1cc(Cl)c2oc(C(=O)N3CCN(c4cccc(C)n4)CC3)c(C)c2c1	?
CC(C)CN(C(=O)CN1CCCCCC1)c1c(N)n(CC(C)C)c(=O)[nH]c1=O	4%
COCCN1C(=O)N(c2cccc(OC)c2)C(=O)C1CC(=O)Nc1ccc(OC)cc1 (stereo not drawn)	-14%
O=C(NC1CC1)c1ccc2nc(-c3ccco3)c(-c3ccco3)nc2c1	?
O=C(NC1CCCCCC1)c1ccc(CS(=O)(=O)Cc2ccccc2F)o1	4%
CCO[C@H]1OC(C(=O)N2CCOCC2)=C[C@@H](c2coc3ccccc3c2=O)[C@@H]1CCCO	-1%
CCCCOCCCNC(=O)CCCOc1ccccc1	-14%
COc1cc(CN2CCNC(=O)C2CC(=O)N2CCCO2)cc(OC)c1 (stereo not drawn)	-16%
C=CCSc1nnc(-c2nnc(SCC=C)n2-c2ccccc2)n1-c1ccccc1	2%
COc1ccc2[nH]cc(/C=N/NS(=O)(=O)c3ccc(C)cc3)c2c1	?
COc1cc(OC)c(OC)cc1CN1CCN(c2ccccc2OC)CC1	-6%
CN(CC(=O)Nc1cccc(F)c1)C(=O)c1cn(-c2ccccc2)nc1-c1ccc(F)cc1	-23%
COc1ccc(S(=O)(=O)NC(CC(=O)O)c2ccco2)cc1 (stereo not drawn)	-18%
COC(=O)c1cc(C#N)c(Oc2cccc(C)c2C)nc1C	7%
O=C(Cc1c(Cl)cccc1Cl)Nc1cccnc1	5%
Cn1cccc1C(=O)OCc1nc2ccccc2c(=O)[nH]1	13%
COc1ccc(N2CCN(C(=O)c3cc4c(C)nc5ccccc5c4o3)CC2)cc1	-14%
CCN(CC(=O)NCc1cccs1)C(=O)c1ccc(S(=O)(=O)N(C)C)cc1	0%
c1ccc2c(C[C@@H]3CNCCN3CCC34CC5CC(CC(C5)C3)C4)cccc2c1	-7%
CC(C)n1ncc2c(C(=O)Nc3ccc(CC#N)cc3)cc(C3CC3)nc21	3%
Cc1cccc2cc(CN(CC3CCCO3)C(=S)Nc3ccccc3)c(=O)[nH]c12 (stereo not drawn)	-17%
Cc1ccc(NC(=O)C2CCCN(c3cnccn3)C2)cc1Cl (stereo not drawn)	12%
Cc1c(-c2nsc(NC(=O)c3cccs3)n2)nnn1-c1ccc(Cl)cc1	-2%

6 compounds out of the list, sorted by SMILES length, low to high:
SMILES	VDR inhibitor
COc1ccc2[nH]cc(/C=N/NS(=O)(=O)c3ccc(C)cc3)c2c1	?
Cc1cc(Cl)c2oc(C(=O)N3CCN(c4cccc(C)n4)CC3)c(C)c2c1	?
COc1cccc(NC(=O)CN(C)C(=O)CN2C(=O)NC3(CCCC3)C2=O)c1	-13%
COCCN1C(=O)N(c2cccc(OC)c2)C(=O)C1CC(=O)Nc1ccc(OC)cc1 (stereo not drawn)	-14%
CCCCSCCCNC(=O)c1cc(-c2cccnc2)nc2ccc(S(=O)(=O)N3CCC(C)CC3)cc12	24%
Cc1ccc(S(=O)(=O)N2CCC(=O)N(C(COCc3ccc(C(F)(F)F)cc3)C(C)C)CC2)cc1 (stereo not drawn)	8%

(more compounds)
SMILES	VDR inhibitor
CC(OC(=O)CNC(=O)c1ccc2ccccc2c1)C(=O)NC1CCCCC1C (stereo not drawn)	-14%
NS(=O)(=O)c1ccc(CCNC(=O)CSc2ccsc2[N+](=O)[O-])cc1	-14%
Cc1ccc(C(=O)c2cnc3ccccc3c2-c2ccccc2)cc1	-1%
O=C(NC1CCCCC1)C(c1cccnc1)N(C(=O)c1csnn1)c1ccccc1F (stereo not drawn)	14%
O=C(Nc1cc(S(=O)(=O)N2CCOCC2)ccc1Cl)c1ccncc1	-10%
CCn1c(COc2c(C)cccc2C)nnc1SCc1nc2ccccc2c(=O)[nH]1	2%
COc1ccccc1NC(=O)C(C)Sc1nccn1C (stereo not drawn)	-17%
Clc1cccc(CN2CCc3c([nH]c4ccccc34)C2)c1Cl	-17%
CC1CCc2c(c3ccccc3[nH]c2=O)O1 (stereo not drawn)	3%
COC(=O)c1ccc(N=Cc2c(C(F)(F)F)[nH]n(C)c2=O)cc1	-3%
Nc1ccc(-c2nc3ccc(C(=O)O)cc3s2)cc1	1%
